Screening data deposited in PubChem BioAssay by Broad Institute.
Vaccinia stage: Vaccinia orthopox stage-specific inhibition; Vaccinia-infected cells, mCherry/Venus stage reporter fluorescence; active compounds read low; some inactives read as strong as hits; activity change (mCherry), % (no concentration beside the values); actives 0.01% (n = 89,000);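 active = mCherry past -33% and 40 or more points under the early reporter, replicates agreeing; inconclusive = past -33% without that gap or agreement; tested in A549 cells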;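 note: scaled between vehicle wells and reference inhibitor wells; 23 nL library stock went into each well; one replicate is shown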
Vaccinia stage Venus: also measured in Vaccinia stage; calls as there; activity change (Venus), %; measured here: Venus reporter, other viral stage;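 negative = less Venus signal; first of two replicates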
Numbers without * were called inactive; u = inconclusive; x = not tested or not shown. A portion of the library; the hit share may differ from the screen's.

entry	mol	Vaccinia stage	Vaccinia stage Venus
1	COc1ccc(NC(=O)N(C)C[C@@H]2Oc3c(NS(=O)(=O)c4ccc(Cl)cc4)cccc3C(=O)N([C@@H](C)CO)C[C@@H]2C)cc1	6	3
2	CO[C@H]1CN(C)C(=O)c2ccc(NS(C)(=O)=O)cc2OC[C@H](C)N(C(=O)C2CC2)C[C@@H]1C	11	12
3	C[C@@H]1CN([C@@H](C)CO)C(=O)c2cccc(NC(=O)Nc3ccc(F)cc3)c2O[C@@H]1CN(C)C(=O)Nc1cccc2ccccc12	u	x
4	CC(C)NC(=O)N(C)C[C@H]1Oc2ccc(NC(=O)Nc3ccc(F)cc3)cc2CC(=O)N([C@H](C)CO)C[C@@H]1C	2	1
5	C[C@H](CO)N1C[C@H](C)[C@H](CN(C)C(=O)c2ccc3c(c2)OCO3)Oc2cc(-c3cncnc3)ccc2S1(=O)=O	24	8
6	C[C@@H]1CN([C@H](C)CO)C(=O)Cc2cc(NC(=O)CCN3CCOCC3)ccc2O[C@@H]1CN(C)CC1CC1	4	-2
7	CNC[C@H]1Oc2cc(C#Cc3cccc(F)c3)ccc2S(=O)(=O)N([C@H](C)CO)C[C@@H]1C	u	x
8	CO[C@@H]1CN(C)C(=O)c2ccc(NC(=O)NC(C)C)cc2OC[C@@H](C)N(C)C[C@H]1C	5	3
9	CC(C)NC(=O)N1[C@@H]2CNC[C@H]1C2c1ccc(-c2ccc(C#N)cc2)cc1 (stereo partly drawn)	0	-3
10	C[C@H](CO)N1C[C@H](C)[C@@H](CN(C)S(C)(=O)=O)Oc2ncc(C#CC3CC3)cc2C1=O	28	15
11	CC(C)[C@@H](C)NC(=O)N(C)C[C@@H]1OCc2ccccc2-c2c(n(C)c3ccccc23)C(=O)N([C@@H](C)CO)C[C@@H]1C	17	15
12	C[C@@H]1CN([C@@H](C)CO)C(=O)c2cc(NC(=O)Nc3ccccc3)ccc2O[C@H]1CN(C)CC1CCCCC1	-16	-13
13	CCC(=O)N1CC2(C1)[C@H](c1ccc(-c3ccc(C)cc3)cc1)[C@@H](CO)N2S(C)(=O)=O	-2	-1
14	CC(C)CC#Cc1cnc2c(c1)C(=O)N([C@@H](C)CO)C[C@@H](C)[C@@H](CN(C)S(=O)(=O)c1cccs1)O2	-2	0
15	C[C@H]1CN([C@@H](C)CO)C(=O)c2cccc(NC(=O)C3CCOCC3)c2O[C@H]1CN(C)Cc1ccc(Cl)c(Cl)c1	8	4

One compound at a time, as listed above. Screens in order: Vaccinia stage | Vaccinia stage Venus
CC(C)CC#Cc1cnc2c(c1)C(=O)N([C@@H](C)CO)C[C@@H](C)[C@@H](CN(C)S(=O)(=O)c1cccs1)O2 across the screens: -2 | 0
C[C@@H]1CN([C@@H](C)CO)C(=O)c2cc(NC(=O)Nc3ccccc3)ccc2O[C@H]1CN(C)CC1CCCCC1 across the screens: -16 | -13
CC(C)NC(=O)N(C)C[C@H]1Oc2ccc(NC(=O)Nc3ccc(F)cc3)cc2CC(=O)N([C@H](C)CO)C[C@@H]1C across the screens: 2 | 1

Returning to the listing, starting 6 compounds before the break.
entry	mol	Vaccinia stage	Vaccinia stage Venus
10	C[C@H](CO)N1C[C@H](C)[C@@H](CN(C)S(C)(=O)=O)Oc2ncc(C#CC3CC3)cc2C1=O	28	15
11	CC(C)[C@@H](C)NC(=O)N(C)C[C@@H]1OCc2ccccc2-c2c(n(C)c3ccccc23)C(=O)N([C@@H](C)CO)C[C@@H]1C	17	15
12	C[C@@H]1CN([C@@H](C)CO)C(=O)c2cc(NC(=O)Nc3ccccc3)ccc2O[C@H]1CN(C)CC1CCCCC1	-16	-13
13	CCC(=O)N1CC2(C1)[C@H](c1ccc(-c3ccc(C)cc3)cc1)[C@@H](CO)N2S(C)(=O)=O	-2	-1
14	CC(C)CC#Cc1cnc2c(c1)C(=O)N([C@@H](C)CO)C[C@@H](C)[C@@H](CN(C)S(=O)(=O)c1cccs1)O2	-2	0
15	C[C@H]1CN([C@@H](C)CO)C(=O)c2cccc(NC(=O)C3CCOCC3)c2O[C@H]1CN(C)Cc1ccc(Cl)c(Cl)c1	8	4
16	O=C(Cc1ccccc1)N1CC(=O)N2[C@H](C1)[C@H](c1ccc(C#CCc3ccccc3)cc1)[C@@H]2CO	14	1
17	C[C@H](CO)N1C[C@H](C)[C@@H](CN(C)C)Oc2ccc(NC(=O)Cc3cn(C)c4ccccc34)cc2C1=O	3	2
18	CO[C@H]1CC[C@@H]2CCOc3c(C#N)cccc3C(=O)N(C)C[C@@H](C)C(=O)N(C)C[C@@H]1O2	9	10
19	CO[C@@H]1CN(C)C(=O)c2cc(NC(=O)c3nc4ccccc4s3)ccc2OC[C@@H](C)N(Cc2ccccc2)C[C@H]1C	-9	-4
20	O=C(NCC[C@H]1CC[C@H](NS(=O)(=O)c2ccccc2)[C@H](CO)O1)c1ccccc1F	8	3
21	C[C@H](CO)N1C[C@H](C)[C@H](CN(C)Cc2ccc(-c3ccccc3)cc2)Oc2c(NC(=O)Nc3ccc(C(F)(F)F)cc3)cccc2C1=O	u	x
22	Cc1cccc(S(=O)(=O)N2CC[C@H]3[C@@H](CO)N(C)c4ccc(-c5ccc(C#N)cc5)cc4[C@H]32)c1	-8	-18
23	CC=Cc1ccc2n(c1=O)C[C@H]1[C@H](CO)[C@@H](C(=O)NCC)[C@@H]2N1Cc1cccc(Cl)c1 (mixture of isomers)	-3	-5
24	CN1CCN(C(=O)C[C@@H]2CC[C@@H](NC(=O)Nc3ccccc3F)[C@@H](CO)O2)CC1	-19	-4
25	O=S(=O)(c1cccc(F)c1)N1[C@@H]2CNC[C@H]1C2c1ccc(-c2ccncc2)cc1 (stereo partly drawn)	-14	-9
26	C[C@@H]1CN([C@H](C)CO)C(=O)Cc2cc(NC(=O)CCN3CCOCC3)ccc2O[C@@H]1CN(C)Cc1ccc(-c2ccccc2)cc1	u	x
27	CC(=O)n1cc([C@H]2C=C(C(=O)N3CCOCC3)O[C@@H](OCCCCO)C2)c2ccccc21	12	7
28	CC(C)NC(=O)Nc1cccc2c1O[C@@H](CN(C)Cc1ccc(C(F)(F)F)cc1)[C@@H](C)CN([C@H](C)CO)C2=O	14	16
29	CCN(C[C@H]1[C@@H](c2ccc(-c3ccccc3)cc2)[C@@H](CO)N1C(C)=O)C(C)=O	0	8
30	C[C@@H]1CN([C@@H](C)CO)C(=O)c2cc(NC(=O)c3ccncc3)ccc2O[C@@H](C)CCCCO[C@H]1CN(C)C(=O)Nc1ccccc1	20	6
31	CNC[C@H]1OCCCC[C@@H](C)Oc2ccc(NC(=O)Nc3ccc(C(F)(F)F)cc3)cc2C(=O)N([C@H](C)CO)C[C@@H]1C	5	5
32	CO[C@@H]1CN(C)C(=O)c2cc(NC(C)=O)ccc2OC[C@H](C)N(Cc2ccccn2)C[C@@H]1C	-10	-12
33	CCN1[C@@H]2c3ccc(-c4cccnc4)c(=O)n3C[C@H]1[C@H](CO)[C@H]2C(=O)NC1CCCC1	14	8
34	CO[C@H]1CN(C)C(=O)c2cc(NC(=O)C3CCOCC3)ccc2OC[C@H](C)N(C)C[C@@H]1C	6	9
35	CC(C)c1cn(CC[C@H]2CC[C@@H](NC(=O)c3cccc(F)c3)[C@H](CO)O2)nn1	-4	-8
36	C[C@H]1CN([C@@H](C)CO)C(=O)c2cccc(NC(=O)C3CCOCC3)c2O[C@@H]1CN(C)Cc1ccc(Oc2ccccc2)cc1	-13	-16
37	Cc1ccc(S(=O)(=O)N(C)C[C@H]2Oc3cc(C#CC4CCCC4)ccc3S(=O)(=O)N([C@H](C)CO)C[C@@H]2C)cc1	-31	-26
38	CO[C@H]1CN(C)C(=O)c2ccc(NC(=O)C3CC3)cc2OC[C@@H](C)N(C(=O)c2ccccc2)C[C@@H]1C	2	2
39	CCCNC(=O)N[C@@H]1CC[C@H](CC(=O)NC2CCCCC2)O[C@H]1CO	0	3
40	CC(C)NC(=O)N(C)C[C@@H]1Oc2c(NC(=O)C3CCCCC3)cccc2C(=O)N([C@H](C)CO)C[C@H]1C	13	9
41	C[C@@H]1CN([C@@H](C)CO)C(=O)c2cccc(NC(=O)Nc3cccc4ccccc34)c2O[C@H]1CN(C)C(=O)Nc1cccc2ccccc12	21	13
42	COc1ccc(CN(C)C[C@@H]2OCCCC[C@@H](C)Oc3ccc(NC(=O)Nc4ccc(OC)cc4)cc3C(=O)N([C@@H](C)CO)C[C@H]2C)cc1	-32	-29
43	O=C(c1cccc(F)c1)N1CC2(C1)[C@@H](c1ccccc1)[C@@H](CO)N2Cc1ccccn1	5	20
44	O=C(CN1CCOCC1)NCC[C@@H]1CC[C@@H](NC(=O)Cc2ccccn2)[C@H](CO)O1	3	5
45	C[C@@H]1CN([C@@H](C)CO)C(=O)c2cc(C#CC3CCCC3)cnc2O[C@H]1CN(C)C(=O)c1ccncc1	-13	-5

Copied from above, entries 44 to 45
entry	mol	Vaccinia stage	Vaccinia stage Venus
44	O=C(CN1CCOCC1)NCC[C@@H]1CC[C@@H](NC(=O)Cc2ccccn2)[C@H](CO)O1	3	5
45	C[C@@H]1CN([C@@H](C)CO)C(=O)c2cc(C#CC3CCCC3)cnc2O[C@H]1CN(C)C(=O)c1ccncc1	-13	-5

The list goes on.
entry	mol	Vaccinia stage	Vaccinia stage Venus
46	O=C(C[C@@H]1CC[C@H](NC(=O)c2ccncc2)[C@H](CO)O1)NCc1ccncn1	6	2
47	Cc1noc(C)c1S(=O)(=O)N(C)C[C@H]1OCCCC[C@H](C)Oc2ccc(NS(=O)(=O)c3cccs3)cc2C(=O)N([C@H](C)CO)C[C@H]1C	-32	-23
48	Cc1ccccc1-c1cnc2c(c1)C(=O)N([C@H](C)CO)C[C@H](C)[C@@H](CN(C)C(=O)c1ccc(F)cc1)O2	-12	-19
49	Cc1noc(C)c1S(=O)(=O)Nc1ccc2c(c1)CC(=O)N([C@H](C)CO)C[C@@H](C)[C@@H](CN(C)CC1CC1)O2	2	3
50	CC(C)CC#Cc1ccc([C@H]2[C@H](CO)N3C(=O)CN(C(=O)NC4CCCCC4)C[C@@H]23)cc1	-13	-12
51	O=C(C[C@@H]1C[C@H]2c3cc(NC(=O)C4CCOCC4)ccc3O[C@H]2[C@H](CO)O1)NCC(F)(F)F	0	6
52	COc1cccc(-c2cnc3c(c2)C(=O)N([C@H](C)CO)C[C@@H](C)[C@@H](CN(C)C(=O)CC2CC2)O3)c1	1	0
53	C[C@@H]1CN([C@H](C)CO)C(=O)c2cccc(NC(=O)Nc3ccc(F)cc3)c2O[C@H]1CN(C)CC1CC1	-1	-1
54	Cc1noc(C)c1NC(=O)N(C)C[C@H]1Oc2ccc(NS(=O)(=O)c3cn(C)cn3)cc2CC(=O)N([C@H](C)CO)C[C@@H]1C	-3	5
55	O=S(=O)(c1cccs1)N1CCCCN2[C@H](C1)[C@@H](c1ccc(/C=C/c3ccccc3)cc1)[C@@H]2CO	-14	-13
56	CO[C@@H]1CN(C)C(=O)c2cc(NC(=O)c3nc4ccccc4s3)ccc2OC[C@@H](C)NC[C@@H]1C	-9	-2
57	O=C1C[C@@](C(=O)NCCN2CCOCC2)(c2ccc([N+](=O)[O-])cc2)[C@@H](c2ccc(CO)cc2I)N1CC12CC3CC(CC(C3)C1)C2	u	x
58	CO[C@H](CN(C)C(=O)C1CCOCC1)[C@H](C)CN(C(=O)Nc1ccc(F)cc1)[C@@H](C)CO	12	10
59	N#C[C@H]1[C@H](c2ccc(C#Cc3cccc(F)c3)cc2)[C@@H](CO)N1C(=O)C1CCC1	-11	-12
60	Cc1ccc(S(=O)(=O)Nc2ccc3c(c2)CC(=O)N([C@H](C)CO)C[C@@H](C)[C@@H](CN(C)Cc2ccc4c(c2)OCO4)O3)cc1	-13	-10
61	O=C(Nc1ccc2c(c1)[C@@H]1C[C@@H](CC(=O)N3CCCCC3)O[C@H](CO)[C@@H]1O2)NC1CCCC1	11	20
62	N#C[C@@H]1[C@H](c2ccc(-c3cccc(F)c3)cc2)[C@@H](CO)N1C(=O)NC1CCCCC1	u	x
63	C[C@H](CO)N1C[C@H](C)[C@@H](CN(C)Cc2ccc(C(=O)Nc3ccccc3N)cc2)Oc2ccc(NC(=O)CCN3CCOCC3)cc2CC1=O	9	3
64	O=C(Cc1cccnc1)N1CCCCN2[C@H](C1)[C@H](c1ccc(C#CC3CC3)cc1)[C@@H]2CO	-35	-29
65	CC(C)NC(=O)Nc1ccc2c(c1)CC(=O)N([C@H](C)CO)C[C@@H](C)[C@H](CN(C)C(=O)Nc1ccc(C(F)(F)F)cc1)O2	21	9
66	C[C@H]1CN([C@@H](C)CO)C(=O)c2cccc(NC(=O)Nc3ccc(C(F)(F)F)cc3)c2O[C@@H]1CN(C)C(=O)Nc1ccc(F)cc1	u	x
67	C[C@@H]1CCCCO[C@@H](CN(C)C(=O)NC2CCCCC2)[C@@H](C)CN([C@H](C)CO)C(=O)c2cc(NC(=O)CCCN(C)C)ccc2O1	7	10
68	CO[C@H]1CN(C)C(=O)c2cc(NC(=O)C3CC3)ccc2OC[C@@H](C)N(Cc2ccncc2)C[C@H]1C	6	11
69	C[C@H](CO)N1C[C@H](C)[C@@H](CN(C)Cc2ccccc2)OCc2ccccc2-c2ccccc2C1=O	-2	4
70	CNC[C@H]1Oc2c(NC(=O)Nc3ccc(F)cc3)cccc2C(=O)N([C@H](C)CO)C[C@H]1C	25	12
71	C[C@H](CO)N1C[C@H](C)[C@@H](CN(C)S(=O)(=O)c2ccc(F)cc2)Oc2c(NC(=O)Nc3ccccc3)cccc2C1=O	-19	-9
72	C[C@@H]1CCCCO[C@@H](CN(C)C(=O)NC2CCCCC2)[C@@H](C)CN([C@H](C)CO)C(=O)c2cc(NS(=O)(=O)c3ccc(Cl)cc3)ccc2O1	5	1
73	O=C(C1CC1)N1CC(=O)N2[C@H](CO)[C@H](c3ccc(C#Cc4cccc(F)c4)cc3)[C@@H]2C1	-14	-6
74	O=C(C1CCCC1)N1CCCCN2[C@@H](CO)[C@@H](c3ccc(-c4ccncc4)cc3)[C@@H]2C1	-4	-1
75	COc1ccc(CN(C)C[C@H]2Oc3ccc(NC(=O)NC4CCCCC4)cc3CC(=O)N([C@H](C)CO)C[C@H]2C)cc1	-7	-16
